hNpr1 antagonist: antagonists of human natriuretic peptide receptor Npr1. Potency, µM (doses to about 46.3 µM), without a hit: at the highest dose activity change, negative = inhibition, actives largely listed as inhibitors. HEK293 hNpr1 GloSensor cGMP, ANP-stimulated luminescence. AID 1347048. 1.6% of 76,000 active. P16066; active = well fitted inhibition curve with a large enough effect; inconclusive = small, poorly fitted or top-dose-only effect; inactive = no such curve, though single readings can be large or run the other way;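 also: nearly all actives have a fitted effect of over 60% in size; nearly all hits also lower the signal before the agonist is added; a reference antagonist and vehicle were the controls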
Target sequence (P16066 whole entry, looked up): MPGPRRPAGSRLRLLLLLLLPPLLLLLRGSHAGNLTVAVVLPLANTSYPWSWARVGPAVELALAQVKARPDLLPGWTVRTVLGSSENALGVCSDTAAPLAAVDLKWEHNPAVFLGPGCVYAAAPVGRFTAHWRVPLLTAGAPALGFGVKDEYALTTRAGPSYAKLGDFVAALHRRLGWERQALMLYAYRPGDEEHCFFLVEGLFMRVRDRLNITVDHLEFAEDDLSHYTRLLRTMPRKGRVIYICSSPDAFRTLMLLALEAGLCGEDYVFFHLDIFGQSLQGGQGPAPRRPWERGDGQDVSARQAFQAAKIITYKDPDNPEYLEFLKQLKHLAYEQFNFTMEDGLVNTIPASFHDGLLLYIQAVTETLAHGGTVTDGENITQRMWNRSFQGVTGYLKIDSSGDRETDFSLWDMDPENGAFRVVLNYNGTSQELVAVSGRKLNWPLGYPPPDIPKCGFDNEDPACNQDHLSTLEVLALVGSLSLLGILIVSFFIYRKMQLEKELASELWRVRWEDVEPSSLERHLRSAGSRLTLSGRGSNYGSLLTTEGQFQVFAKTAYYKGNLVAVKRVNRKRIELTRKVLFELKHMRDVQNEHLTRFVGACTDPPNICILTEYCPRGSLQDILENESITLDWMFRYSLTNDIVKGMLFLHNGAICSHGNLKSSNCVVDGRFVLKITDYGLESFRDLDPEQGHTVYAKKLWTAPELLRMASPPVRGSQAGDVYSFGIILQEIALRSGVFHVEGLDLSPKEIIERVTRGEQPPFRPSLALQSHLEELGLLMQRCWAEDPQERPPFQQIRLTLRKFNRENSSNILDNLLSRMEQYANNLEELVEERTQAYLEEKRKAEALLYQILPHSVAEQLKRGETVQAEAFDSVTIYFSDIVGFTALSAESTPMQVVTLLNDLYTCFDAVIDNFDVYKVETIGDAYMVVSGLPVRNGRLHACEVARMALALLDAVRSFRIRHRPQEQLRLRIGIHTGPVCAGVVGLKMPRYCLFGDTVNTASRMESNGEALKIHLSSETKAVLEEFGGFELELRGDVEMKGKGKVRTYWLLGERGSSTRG
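Compound pre-incubated 30 min at room temperature on GloSensor-loaded HEK293 cells stably carrying hNpr1 and the pGS-40F cGMP biosensor. Stimulation uses hNppA at 0.1 nM final; luminescence is taken at baseline and 20 min post-agonist.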
Starred values were filed as active, the others as inactive; ? = inconclusive; [ ] = dose if it differs, or a comment. % is scaled to controls: 0 for no effect and ±100 for the full control effect; potency is read from the fitted curve at half-maximal effect.

molecule,hNpr1 antagonist
COc1ccc(C(=O)N2CCCC3(C2)NC(=O)N(Cc2cc(C)ccc2C)C3=O)cc1F (stereo unspecified),-1%
CC(C)(CC(=O)O)CC(=O)N[C@H]1CO[C@H]2[C@@H]1OC[C@@H]2n1nnnc1Oc1ccc(-n2ccnc2)cc1,1%
CCCn1nccc1C(=O)NCc1cccnc1-n1cnc2ccccc21,-2%
CC1(c2ccccc2)N(Cc2cccnc2)C(=O)OC12CCN(C(=O)Cc1cccc(F)c1)CC2 (stereo unspecified),-6%
CC1=NS(=O)(=O)N(Cc2ccccc2)C=C1C(=O)OCC1CC1,-10%
CCOc1ccc(C2NC(=O)N(CCC(C)C)C3=C2C(=O)OC3)cc1 (stereo unspecified),0%
O=C(NC1CCCCCCC1)C1CCN(C(=O)c2ncn3c2COC(c2ccccc2)C3)CC1 (stereo unspecified),-22%
OCC1(CCCc2ccccc2)CCNCC1,2%
COC(=O)CCCNC(=O)[C@@]1(O)C[C@@H](O)[C@H](O)[C@@H](NC(=O)Nc2ccc(C)cc2)C1,-3%[70.6 µM]
Cc1cc(C(=O)N2C[C@@H](C)[C@@](C)(O)C2)cc(S(N)(=O)=O)c1C,-3%
CN(C)c1cccc(-c2cc(-c3cn[nH]c3)c3cncn3c2)c1,-12%[70.6 µM]
COCCN1CCCN(C(=O)NCCc2ccccc2)c2ccccc21,-13%

Additional entries:
molecule,hNpr1 antagonist
Cc1ccc(C)c(-c2cc3c(=O)n(CCNC(=O)c4ccc5c(c4)OCO5)ccn3n2)c1,2%
COC(=O)CNC(=O)N1CCOc2ccc(CN3CCc4ccccc4C3)cc2C1,-2%
CN1[C@H]2CC[C@@H]1CN(C(=O)c1cccc(CCC(C)(C)O)c1)CC2,0%
CN1CCC(OC2CCN(C(=O)c3ccc(Cl)s3)CC2)CC1,2%
Cc1ccc(CNC(=O)c2ccc(N3CC4CC(C3)[C@H]3CCCC(=O)N3C4)nc2)cc1 (stereo partly specified),0%
COC(=O)C1=C(C)N=C2SC=C(CC(=O)NCc3cccc(F)c3)N2C1c1ccccc1Cl (stereo unspecified),?
O=C(c1ccc(Cl)nc1)N1CCn2c(nn(-c3ccncc3)c2=O)C1,-2%
CCCn1cnc2c1CN(S(=O)(=O)c1ccc(F)cc1)[C@H](C(=O)OC)C2,-2%[70.6 µM]
CC1=NOC2(CCN(C(=O)c3ccc4c(c3)OCO4)CC2)C1,0%[70.6 µM]
Cc1noc(-c2ccc(OC(F)(F)F)cc2)c1C(=O)NCCC(c1ccccc1)c1ccccc1,-12%
CCN1C(=O)CN(C(=O)c2cccnc2)CC12CCOCC2,7%
O=C(Nc1cc(Cl)cc(Cl)c1)c1ccn2nccc2c1,-24%[70.6 µM]

Additional structures.
molecule,hNpr1 antagonist
O=C(CC1CCCC1)N1CCC(c2nc(C3CCOCC3)no2)CC1,?
COc1cc(NC(=O)c2ccc3c(c2)N(C)C2CCCCCN2C3=O)cc(OC)c1OC (stereo unspecified),-20%
COCCNc1nc(N)nc2c1CCN(C(=O)c1cscn1)CC2,-11%
O=C(C1CCCC1)N1CCCCCC1c1nc(-c2ccncc2)no1 (stereo unspecified),-1%
COCc1cc(C[C@@H]2CC[C@H](O)[C@@H](CNC(=O)C(C)(C)C)O2)no1,1%[70.6 µM]
O=C(Nc1ccccc1)c1cnc2n1CCN(Cc1cccc(O)c1)CC2,-1%[70.6 µM]
C#CCNC(=O)C[C@@H]1O[C@H](CNC(=O)c2cccc(F)c2)[C@@H](O)[C@H]1O,0%[70.6 µM]
CC1CCN(c2ccc(CNC(=O)C3CCCN(S(C)(=O)=O)CCC(=O)NCC3)cc2)CC1 (stereo unspecified),0%
CCOc1ccc(C2Cn3nnc(-c4nc(-c5ccc(SC)cc5)no4)c3CO2)cc1 (stereo unspecified),-5%
CC(C)c1noc(C2CCCN2C(=O)c2cc(-c3cccs3)n(C)n2)n1 (stereo unspecified),1%
CCC(C(=O)N(C)Cc1ccc(OC)c2ncccc12)n1cccn1 (stereo unspecified),4%
CC(C)c1cccc(NC(=O)CN2C(=O)NC3(CCOCC3)C2=O)c1,-3%

The list goes on.
molecule,hNpr1 antagonist
COc1ccc(-n2nc(C3CCN(C(=O)Nc4ccccc4)CC3)[nH]c2=O)cc1,0%
c1ccc(Oc2ccccc2-c2cc3c(cn2)CN(Cc2ccncc2)CCN3)cc1,-27%[70.6 µM]
CC(C)NC(=O)Nc1ccc([C@H]2OCC(=O)N(CC(=O)N(C)C)[C@@H]2CO)cc1,1%[70.6 µM]
CCOc1ccc(NC(=O)Cn2c(-c3cccc(Cl)c3)nc(C)c(CCO)c2=O)cc1,-11%
COc1ccc(N2CC(C(=O)N3CCOCC3)NC2=O)cc1 (stereo unspecified),0%[70.6 µM]
CN(C)CCN1C(=O)CC[C@]2(C(=O)NCc3cc(F)cc(F)c3)CCCC[C@@H]12,0%
CNC(=O)C1(N2CCC[C@H]2C(=O)N2CCC(C)CC2)COC1,1%[70.6 µM]
CCC(C(=O)NC1CCN(c2cn[nH]c(=O)c2)CC1)c1ccccc1 (stereo unspecified),-15%
CN1CC(=O)N(c2ccc(Cl)cc2)Cc2c1ncnc2N1CCC(Cc2ccccc2)CC1,4%
O=C(NCc1ccc(F)cc1)c1nc(-c2cccc(C(F)(F)F)c2)c2cnccn12,0%
O=C(Nc1cccc(C(F)(F)F)c1)O[C@@H]1CO[C@H]2[C@@H]1OC[C@@H]2Nc1nccc(-c2ccc3c(c2)OCO3)n1,2%
COc1ccccc1-c1ccc2ncc(Nc3cccc(O)c3)n2n1,1%[70.6 µM]

Arranged by length of the SMILES (smallest number first): four of the compounds above
molecule,hNpr1 antagonist
COc1ccc(N2CC(C(=O)N3CCOCC3)NC2=O)cc1 (stereo unspecified),0%[70.6 µM]
COc1ccccc1-c1ccc2ncc(Nc3cccc(O)c3)n2n1,1%[70.6 µM]
CNC(=O)C1(N2CCC[C@H]2C(=O)N2CCC(C)CC2)COC1,1%[70.6 µM]
c1ccc(Oc2ccccc2-c2cc3c(cn2)CN(Cc2ccncc2)CCN3)cc1,-27%[70.6 µM]

The list continues:
molecule,hNpr1 antagonist
O=C(O)CCc1nc(C2CCOCC2)n[nH]1,0%
CCCCNC(=O)N1C[C@H]2OC(=O)N(Cc3ccc(OC)c(OC)c3)[C@H]2C1,15%
Cc1ccc(C#N)c(N2CC[C@@]3(O)CCN(S(=O)(=O)N(C)C)C[C@H]3C2)n1,2%
COCC(=O)N1C[C@H](NC(=O)c2nc3ccccc3n(C)c2=O)[C@@H](C2CC2)C1,-3%
CCOC(=O)C1(Cc2ccccc2)CCCN(S(=O)(=O)c2cccs2)C1 (stereo unspecified),2%
CCc1nc(-c2c3n(c(=O)n(CC(=O)NCc4ccccc4)c2=O)CCCC3)no1,0%
COc1ccc(CN[C@H]2[C@H](O)[C@H](O)C[C@@H]2c2ccccc2)cc1,-14%[70.6 µM]
CC1(CNC(=O)c2ccc(C#N)cc2)CCOCC1,-2%
Cc1ccc(C(=O)N[C@@H]2C=C(C(=O)NCC(N)=O)C[C@@H](O)[C@@H]2O)cc1,3%[70.6 µM]
CN1CCN(C2CCN(Cc3ccccn3)C2=O)CC1 (stereo unspecified),4%
COc1cc(OC)cc(C(=O)NC2CCN(c3cc(C(F)(F)F)nc(C)n3)CC2)c1,1%
CN(Cc1ccccc1)C(=O)C[C@@H]1CCNC[C@@H]1Cc1cc(CN(C)c2ccccc2)on1,-15%

The listing continues.
molecule,hNpr1 antagonist
CCN(CC)C(=O)CCc1c(C)nn(-c2ccccc2C)c1Oc1ccccc1,-25%
Cc1cc(N)n(CC(=O)N2CCC(O)(CN3CCOCC3)C(C)(C)C2)n1 (stereo unspecified),4%
CCn1ncc(CN2CC(F)(F)C[C@H]2c2nc(C(=O)NC)no2)c1C,1%
COCCn1ncc(N2CCC(NC(=O)c3ccc(C(C)C)cc3)CC2)cc1=O,0%
Cc1cccc(C(=O)N2CCC(c3noc(-c4ccncc4)n3)C2)c1 (stereo unspecified),-17%
Cc1cc(C(=O)N2CCc3nn(Cc4ccccc4)c(=O)n3CC2)nn1C,2%
O=c1[nH]c(C2CCCN(Cc3ccccn3)C2)nn1-c1ccc(Cl)cc1 (stereo unspecified),5µM*
Cc1ccoc1C(=O)N1CCC(Oc2ccccc2F)(C(=O)O)CC1,3%
CC(C)c1nc(CCNC(=O)[C@H]2CNC[C@@H](C(=O)N3CCCC3)C2)cs1,2%
N#Cc1ccccc1CN1CCNc2nc(CN3CCN(CCO)CC3)n(Cc3ccccc3)c2C1=O,-1%
Cc1cc(F)ccc1OC1CN(CC2CCCCC2)C1,25%[70.6 µM]
C=CCN1CC2(CCC1=O)CCN(C(=O)[C@@H](O)c1ccccc1)CC2,13%

(more compounds)
smiles,hNpr1 antagonist
Cc1ncc(CN2CCC(C(=O)Nc3cccc(-c4cc5ccccc5[nH]4)c3)CC2)cn1,-1%
CCc1cccc(NC(=O)N2CCc3nc4cc(-c5ccc(OC)cc5)[nH]n4c(=O)c3C2)c1,2%
C=CCN1CC2(CCC1=O)CCN(c1nccc(C(F)(F)F)n1)CC2,3%
O=C(NCCOc1ccccc1)c1nc2c(o1)CCN(Cc1cccc(F)c1)CC2,?
O=C(NCC1(COc2cccnc2)C[C@@H](O)[C@@H](O)C1)C1CC1 (stereo partly specified),?
Cc1noc(-c2cccc(OC3CN(C(=O)c4cnn(C)c4)C3)c2)n1,0%
COCCn1ncc(N2CCCC(CC(=O)Nc3ccc(C)cc3C)C2)cc1=O (stereo unspecified),8%
COc1ccc(-c2ccc3ncc(Nc4cc(F)cc(N5CCOCC5)c4)n3n2)cn1,-24%[70.6 µM]

(more compounds)
smiles,hNpr1 antagonist
Cc1ccc(-c2cc3c(=O)n(CCNC(=O)c4nccc5ccccc45)ccn3n2)c(C)c1,-12%
COc1ccc(-c2noc([C@@H]3Cc4nc[nH]c4CN3Cc3cccs3)n2)cc1,-17%[70.6 µM]
NCCc1ccc(CN2CCC(Oc3ncccn3)CC2)cc1,-6%
CCC[C@H]1CN(Cc2c(C)noc2C)C[C@@H]1NC(=O)CN(C)C(N)=O,2%
O=C(c1c(F)cccc1F)N1C[C@@H](CO)[C@H](c2nc(C3CC3)no2)C1,-1%
Cc1ccsc1CN(Cc1cn(-c2ccccc2)nn1)C1CC1,2%
Cc1noc2c(NCCN(C)C)cc(-c3ccc(F)cc3)nc12,1%[70.6 µM]
O=C(c1ccc(F)cc1)N1CCOC[C@H](Oc2ccccc2)C1,-19%[70.6 µM]

New compounds follow:
smiles,hNpr1 antagonist
O=C(Cn1nnnc1CN1CCOCC1)N1CCCC1c1ccc(F)cc1 (stereo unspecified),2%
Cc1ccc(CNC(=O)CCc2nc(C3CCCN3C(=O)c3ccccc3)no2)o1 (stereo unspecified),-2%
CN(C)C[C@@H]1CN(c2ccncn2)C[C@H]1NC(=O)C1CC=CCC1 (stereo partly specified),0%
CN(C)c1nc(CNC(=O)c2cc(S(N)(=O)=O)ccc2F)cs1,0%
COc1cccc(CN2C[C@@H]3C[C@H]2C(=O)Nc2ccccc2O3)c1,-3%[70.6 µM]
COc1ccccc1OCc1nc2c(n1Cc1ccccc1)C(=O)N(Cc1cccc(Cl)c1)CCN2,4%
CC(C)CCN1CCC2(Cc3ccccc3NC2=O)C1 (stereo unspecified),0%[70.6 µM]
Cc1nn(-c2ccc(C(F)(F)F)cc2)c(C)c1[C@@H]1C=C[C@@H](NC(=O)CC2(CC(=O)O)CCCC2)C1,5%

Of the compounds above, 4 contain a COOH group:
smiles,hNpr1 antagonist
CC(C)(CC(=O)O)CC(=O)N[C@H]1CO[C@H]2[C@@H]1OC[C@@H]2n1nnnc1Oc1ccc(-n2ccnc2)cc1,1%
O=C(O)CCc1nc(C2CCOCC2)n[nH]1,0%
Cc1ccoc1C(=O)N1CCC(Oc2ccccc2F)(C(=O)O)CC1,3%
Cc1nn(-c2ccc(C(F)(F)F)cc2)c(C)c1[C@@H]1C=C[C@@H](NC(=O)CC2(CC(=O)O)CCCC2)C1,5%

Following part.
smiles,hNpr1 antagonist
CCOc1ccc(-c2[nH]ncc2CN)cc1,1%
CCCc1noc(-c2ccn3c(CNC(=O)c4ccc(N(C)C)cc4)nnc3c2)n1,-5%
Cc1nc(-c2c3n(c(=O)n(CC(=O)Nc4cccc(C(F)(F)F)c4)c2=O)CCCC3)no1,-2%
O=C(c1ccc2cc[nH]c2c1)N1CCc2c(nc3cc(-c4ccccc4)[nH]n3c2=O)C1,-2%
Cc1noc(C)c1-c1cc2cc(CO)oc2c(NC2CCN(C)CC2)n1,-22%[70.6 µM]
Cc1noc(C)c1CC(=O)N1CCCC(c2noc(COc3ccccc3)n2)C1 (stereo unspecified),-12%
CN(CC1CCOCC1)C(=O)Cc1ccccc1,-4%
O=C([C@@H]1C[C@H](Oc2ccccc2)CN1C(=O)CC1CCCC1)N1CCOCC1,4%

(more compounds)
smiles,hNpr1 antagonist
COc1ccccc1-c1cc2c(nc1OC)nc(CC1CC1)n2C,0%[70.6 µM]
O=C1CC(c2ccccc2)N(C(=O)C2CC2)CCCN(C(=O)CC2CCCCC2)CCN1 (stereo unspecified),5%
CCOc1cccc(CNC(=O)c2ccc3c(c2)N(S(C)(=O)=O)CC3)c1,-7%
CCC1=C(C(=O)OC)C(c2ccccc2OC)N2C(CC(=O)NCc3ccco3)=CSC2=N1 (stereo unspecified),-13%
COc1ccc(Cn2c3c(c(=O)n2Cc2ccccc2)CCN(CC2CCOC2)C3)cc1 (stereo unspecified),-20%[70.6 µM]
CC[C@H]1CN(S(C)(=O)=O)CC[C@H]1CC(=O)NCCSC,-2%[70.6 µM]
O=C(Cc1ccc(Cl)cc1)Nc1cccc(-c2nnc3n2CCCC3)c1,-22%
O=C(c1ccno1)N1C[C@@H]2OCC(=O)N(Cc3ccc(F)cc3)[C@@H]2C1,2%[70.6 µM]
CCCCOc1ccc(C(=O)N2CCC(Cc3nc(-c4ccccc4)no3)CC2)cc1,10µM*
O=C(CSc1ccccc1)N1CCCC2(C1)Nc1cccnc1NC2=NC1CCCC1 (stereo unspecified),-15%

Screening results deposited in PubChem by National Center for Advancing Translational Sciences (NCATS).

This is a subset. The share of hits here may be higher or lower than overall.
